Rango dissoc inh: qHTS Assay for Inhibitors of RanGTP induced Rango (Ran-regulated importin-beta cargo) - Importin beta complex dissociation; hit rate 0.071% among 340,000; AID 540253, 2011; Biochemical FRET Rango-importin beta, RanGTP-induced dissociation; Snurportin-1 (Homo sapiens) + GTP-binding nuclear protein Ran (Homo sapiens) + Importin …; Potency, µM (doses to about 46.1 µM), inactives show at the top dose activity change, negative = inhibition; active means falling FRET ratio curve, often poorly fitted, with flat reads before Ran was added; inconclusive means other falling curves, or compound fluorescence or quenching; inactive means flat or rising ratio curve;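 note: potency is the fitted concentration of half-maximal effect; % of control where 0% means no effect; nearly all actives have a fitted effect of over 45% in size; -100% = wells without RanGTP and RCC1; the record marks most hits as doubtful in a second field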
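FRET read at 45 min, room temperature: inhibitors block the CFP/YFP signal rise when RanGTP (0.6 uM Ran, 2 mM GTP, 0.2 uM RCC1) frees Rango (0.1 uM) from importin beta (0.25 uM). Pre-read after 5 min compound exposure flags interference.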
GLA inh pH 4.5: qHTS Assay for Inhibitors of Human alpha-Galactosidase at pH 4.5; activity change, negative = inhibition, % at 105 µM; purified enzyme, 4-MU-alpha-Gal fluorescence, pH 4.5; 230,000 tested, under 10 active; Alpha-galactosidase A (Homo sapiens), P06280; AID 1467, 2008; inconclusive = small, poorly fitted or top-dose-only inhibition, or a rising curve; inactive = flat fitted curve, though single readings scatter; no compound was filed as active;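 note: 0% = full activity with enzyme and -100% = basal without enzyme; dose as in the result columns while the protocol names 77 µM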
Target sequence (P06280 whole entry, looked up): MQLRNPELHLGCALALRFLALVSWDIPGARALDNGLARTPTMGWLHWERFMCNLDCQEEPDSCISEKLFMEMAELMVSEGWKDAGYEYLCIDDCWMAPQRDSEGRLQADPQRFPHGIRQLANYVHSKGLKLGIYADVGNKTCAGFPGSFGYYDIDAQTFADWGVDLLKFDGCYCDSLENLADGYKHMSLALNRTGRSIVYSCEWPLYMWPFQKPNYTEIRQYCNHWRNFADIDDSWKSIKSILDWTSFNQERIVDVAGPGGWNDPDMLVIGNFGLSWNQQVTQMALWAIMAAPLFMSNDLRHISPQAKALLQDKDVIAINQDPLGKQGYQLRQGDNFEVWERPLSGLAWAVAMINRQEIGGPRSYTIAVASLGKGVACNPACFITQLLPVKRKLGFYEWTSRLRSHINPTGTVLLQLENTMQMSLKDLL
miR-21 FLuc: qHTS Assay for Modulators of miRNAs and/orActivators of miR-21. HeLa miR-21 FLuc reporter, luciferase, 48 h. Potency, µM (top dose mostly 38.3 µM), without a hit: at the top dose reporter change, positive = more light. 340,000 tested, under 10 active; active = well fitted rising curve with a large enough effect; inconclusive = small, poorly fitted or top-dose-only effect; inactive = no such curve, though single readings can be large or run the other way;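 note: % of control where 0% means no effect; miR-21 action dims this reporter so a rising signal means less miR-21 action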
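Using DMEM plus 10% FBS, HeLa miR-21-FLuc cells are incubated with test compounds (final up to about 40uM) for 48 hours; firefly luciferase signal is then imaged following reagent-mediated lysis.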
Rango-impB inh: qHTS Assay for Inhibitors of Rango (Ran-regulated importin-beta cargo) - Importin beta complex formation. Importin subunit beta-1 (Homo sapiens), Q14974. Rango CFP/YFP FRET sensor + importin beta, 45 min. Potency, µM (titrated, usually from 92.2 µM), for inactives: at the highest dose inhibition of complex formation. hit rate 0.031% among 340,000; active = rising FRET ratio curve, often small or poorly fitted; inconclusive = mostly compound fluorescence or quenching in the first reads; inactive = flat curves in all reads;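 note: potency is the fitted concentration of half-maximal effect; 0% = DMSO wells and 100% = buffer wells lacking importin beta; nearly all actives have a fitted effect of over 15% in size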
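FRET biosensor (snurportin 1 IBB flanked by EYFP and cerulean), 50 nM, with compound 5 min, then 0.125 microM importin beta in PBS, 1 mM DTT, 0.02% Tween-20, 0.1% BSA. CFP/YFP ratio read after 45 min at room temperature; pre-read flags interference.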
* marks the source's active call; other numbers are inactive results; ? = inconclusive; nt = no result given; & = joins results of further samples; [ ] = another dose, or the depositor's remark.

SMILES | Rango dissoc inh | GLA inh pH 4.5 | miR-21 FLuc | Rango-impB inh
CC(C)(O[C@@H]1O[C@H](CO)[C@@H](O)[C@H](O)[C@H]1O)[C@H]1Cc2cc3ccc(=O)oc3cc2O1 | -2% | ? | -2% | 0.4%
Cc1ccc(S(=O)(=O)n2cnc3cc([N+](=O)[O-])ccc32)c(C)c1C | -13% | 9 | -4% | 4.5%
COc1cc(S(=O)(=O)N(Cc2ccccc2)Cc2ccccn2)ccc1-n1cnnn1 | 11% | -7 | -3% | 2.4%
O=C(Nc1c(Cl)ccc2nsnc12)c1ccc([N+](=O)[O-])o1 | 4% | nt | 22% | -0.9%
CC1C(=O)C(C)C(c2ccco2)NC1c1ccco1 (centres undefined) | 3% | -8 | 1% | -5.4%
COc1ccc(NC(=O)CSc2nc(=O)n(CCN(C)C)c3c2CCCC3)cc1OC | 8% | nt | nt | 5.4%
CCOC(=O)c1sc(N(Cc2ccccc2)C(=O)COC(=O)c2cnccn2)nc1C | 11% | 4 | -17% | -2.1%
Oc1ccc(-c2csc(-c3cccnc3)n2)cc1O | ? | 6 | -42% | 3.3%
CC(/C=N/n1c(-c2ccco2)n[nH]c1=S)=C\c1ccccc1 | -19% | -3 | -17% | -3.8%
O=C1c2ccccc2NC(c2ccc(F)cc2)N1Cc1ccccc1 (centres undefined) | -6% | nt | -2% | -0.3%

The last 5 compounds of the section before open the next one:
SMILES | Rango dissoc inh | GLA inh pH 4.5 | miR-21 FLuc | Rango-impB inh
COc1ccc(NC(=O)CSc2nc(=O)n(CCN(C)C)c3c2CCCC3)cc1OC | 8% | nt | nt | 5.4%
CCOC(=O)c1sc(N(Cc2ccccc2)C(=O)COC(=O)c2cnccn2)nc1C | 11% | 4 | -17% | -2.1%
Oc1ccc(-c2csc(-c3cccnc3)n2)cc1O | ? | 6 | -42% | 3.3%
CC(/C=N/n1c(-c2ccco2)n[nH]c1=S)=C\c1ccccc1 | -19% | -3 | -17% | -3.8%
O=C1c2ccccc2NC(c2ccc(F)cc2)N1Cc1ccccc1 (centres undefined) | -6% | nt | -2% | -0.3%
O=C(O)c1ccc(S(=O)(=O)N(Cc2ccc(F)cc2)C2CCCCC2)cc1 | -2% | nt | 9% | -2.8%
CCC(C)NC(=S)N(CCc1ccccc1)Cc1cc2cc(OC)c(OC)cc2[nH]c1=O (centres undefined) | 2% | -4 | 2% | 0.1%
CC(C)(C)C1CCc2[nH]nc(C(=O)O)c2C1 (centres undefined) | 26% | -2 | -6% | -1.9%
COc1cc(-c2nc(-c3ccc(NC(=O)c4ccc(Br)o4)cc3)no2)cc(OC)c1OC | 13% | 6 | -34% | -2.2%
O=C(NNC(=O)c1cccc(C(F)(F)F)c1)c1ccc(-n2cnnn2)cc1 | 0% | nt | nt | -3.3%
Cc1c(C(=O)OC2CCCC2C)[nH]c2c1C(=O)CCC2 (centres undefined) | 3% | -1 | -70% | -0.6%
Cc1c(Br)c([N+](=O)[O-])nn1C(C)C(=O)NCc1cccnc1 (centres undefined) | -5% | 4 | -1% | -1.5%
COc1cc(OC)cc(-c2sc3ccc(OC)cc3c2C#CCO)c1 | -6% | nt | nt | -2.9%
CCCCN(C(=O)C(C)Oc1cccc(Cl)c1)c1c(N)n(CCC)c(=O)[nH]c1=O (centres undefined) | 1% | nt | nt | 3.5%
O=C(Nc1nnc(S(=O)(=O)N2CCCCCC2)s1)c1cccc(Br)c1 | 11% | nt | -17%&-1% | -1.2%
Cc1cccc(C)c1NC(=O)CSc1nnc(C)c(=O)[nH]1 | -4% | -6 | 3% | 0.7%
NC(=O)NC(Cc1ccccc1)C(=O)O (centres undefined) | 1% | -5 | -2% | 3.5%
Cc1cccn2c(=O)c3cc(C(N)=S)c(=N)n(CCCN4CCOCC4)c3nc12 | ? | -5 | 7% | ?
Cc1ccc(C)c(N2CCN(C(c3ccncc3)c3nnnn3Cc3ccccc3)CC2)c1 (centres undefined) | 0% | -7 | 0% | -0.2%
COc1ccc(C(=O)NCCN2CCOCC2)c(OC)c1 | 34% | 1 | -3% | -1.7%
C=CCNC(=O)CN(c1cccc(Br)c1)S(C)(=O)=O | -2% | 7 | -7% | 5.2%
CC(C)CNS(=O)(=O)c1ccc(CCC(=O)NCc2cccnc2)cc1 | 5% | 10 | -2% | -3.7%
Cc1c(C(=O)N2CC(C)OC(C)C2)oc2ccccc12 (centres undefined) | -9% | -6 | -8% | 0.6%
Cc1ccc(C)c(S(=O)(=O)N2CCN(C(C)C(=O)Nc3ccccc3-c3ccccc3)CC2)c1 (centres undefined) | -17% | 0 | 14% | -0.3%
C=CC[C@H](CC(=O)N(CCO)Cc1ccccc1)C(=O)NCCOC(=O)[C@@H](CC=C)CC(=O)OC(C)(C)C | 9% | nt | nt | 0.6%
CCOc1cc(/C=C2\CCC/C(=C\c3cc(Cl)c(O)c(OCC)c3)C2=O)cc(Cl)c1O | 6.5µM* | -12 | ? | ?
CCN(CC)C1Oc2cc3c(cc2C(c2cc(OC)c(OC)c(OC)c2)C1C)OCO3 (centres undefined) | 2% | nt | nt | 0.1%
COc1ccc(C(CNC(=O)c2cc(S(=O)(=O)NCc3ccccc3)ccc2C)N2CCOCC2)cc1 (centres undefined) | -3% | nt | nt | 2.0%
O=c1c(-c2ccccc2)c(O)c2ccccc2n1-c1ccccc1 | 11% | nt | -4% | 0.0%
O=C(NC1CC2CCC(C1)N2C(=O)NCc1ccccc1)C1CC1 (centres undefined) | 1% | -7 | 0% | 1.3%
CNC(=O)c1cc2cc(OC)ccc2n1CCN(C)C | -17% | -1 | -6% | -4.4%
CCCCC(=O)Nc1ccc(C(=O)OC2CCCCC2)cc1 | 12% | -5 | -11% | -0.9%
CCOc1cccc(C(=O)Nc2cccc(C(C)=O)c2)c1 | 2% | 2 | -33% | 0.3%
C=CC[C@@H](CC(=O)NCCO)C(=O)N[C@H](C)COC(=O)[C@@H](CC=C)CC(=O)OC(C)(C)C | -16% | nt | nt | -2.8%
COc1cc(OC)c(/C=N/NC(=O)c2ccc(Cn3nc([N+](=O)[O-])cc3C)cc2)c(OC)c1 | -3% | 3 | 2% | -1.0%
CC(=O)N1CCC(C(=O)Nc2ccc(S(=O)(=O)NCCc3ccccc3)cc2)CC1 | -10% | nt | -4% | 1.7%
Cc1nc(-c2cc(-c3nc(-c4ccc(C(C)(C)C)cc4)no3)no2)cs1 | -1% | -11 | -5% | 2.7%
COc1ccccc1/C=N/Nc1nc(C)c(C(C)=O)s1 | -19% | nt | nt | ?
C=CCn1c(-c2ccccc2)nc(=S)c2c1CC(C)(C)OC2 | 10% | -5 | -1% | -2.8%
CCC(=O)Nc1nnc(SCc2cccc(F)c2)s1 | 0% | 8 | -24% | -1.8%
O=[N+]([O-])c1cnccc1Nc1ccccc1 | 4% | 10 | 0% | 0.2%
O=C(CCNS(=O)(=O)c1ccc(Br)cc1)NCC1CCCO1 (centres undefined) | 2% | nt | nt | -4.1%
CC(C)c1ccc(S(=O)(=O)c2nnn3c2nc(NCC2CCCO2)c2ccccc23)cc1 (centres undefined) | 5% | nt | 0% | -2.5%
O=C(NNC(=O)c1cccnc1Cl)c1ccc(F)cc1 | -2% | nt | -12% | 0.3%
Cc1[nH]n(-c2ccccc2)c(=O)c1C=NC1CCCCC1 | 0% | 2 | -33% | 1.5%
CC1(C)CC(=O)C=C(NCCN2CCN(C(=O)Nc3ccc(Cl)c(Cl)c3)CC2)C1 | -4% | 3 | -5% | 0.6%
COc1cccc(/C(O)=C2/C(=O)C(=O)N(c3ccccn3)C2c2ccc(OC)c(OC)c2)c1 (centres undefined) | 9% | 1 | -7% | 9.5%
CCc1ccc(N2CN(CCc3ccccc3)CNC2=S)cc1 | -9% | -9 | 0% | 0.5%
CC(C)N(Cc1nccn1C)C(=O)CC1C(=O)NCCN1Cc1ccccc1C(F)(F)F (centres undefined) | -20% | nt | -1% | -2.1%
COc1ccc(-n2nc(C(=O)NCC(=O)Nc3cccc(C)n3)c3ccccc3c2=O)cc1 | -5% | 5 | -3% | -0.1%
COc1cc(-c2n[nH]c(=S)n2/N=C/c2cccn2C)cc(OC)c1OC | 0% | -2 | -1% | -3.7%
COc1ccccc1NC(=O)COC(=O)c1ccc(S(=O)(=O)NCc2ccco2)cc1 | 11% | -2 | -1% | 0.6%
CCOc1ccc(OCC)c(NC(=O)CN2CCN(c3ccc(C)cc3C)CC2)c1 | 5% | 2 | -3% | 0.9%
Cc1cccc(NS(=O)(=O)c2ccc3[nH]c(=O)cc(C(=O)O)c3c2)c1 | 3% | -16 | -2% | -3.8%
Cc1cccc(NC(=S)NC2CCCC2)c1C | 30% | nt | -5% | 5.8%

The closing 5 compounds of the part before come first, to join the parts.
SMILES | Rango dissoc inh | GLA inh pH 4.5 | miR-21 FLuc | Rango-impB inh
COc1cc(-c2n[nH]c(=S)n2/N=C/c2cccn2C)cc(OC)c1OC | 0% | -2 | -1% | -3.7%
COc1ccccc1NC(=O)COC(=O)c1ccc(S(=O)(=O)NCc2ccco2)cc1 | 11% | -2 | -1% | 0.6%
CCOc1ccc(OCC)c(NC(=O)CN2CCN(c3ccc(C)cc3C)CC2)c1 | 5% | 2 | -3% | 0.9%
Cc1cccc(NS(=O)(=O)c2ccc3[nH]c(=O)cc(C(=O)O)c3c2)c1 | 3% | -16 | -2% | -3.8%
Cc1cccc(NC(=S)NC2CCCC2)c1C | 30% | nt | -5% | 5.8%
O=C(c1ccc(Cl)cc1)[C@@H]1[C@@H]2C(=O)N(c3ccccc3)C(=O)[C@@H]2C2c3ccccc3C=NN21 (some centres undefined) | -11% | -10 | -3% | 1.9%
Cc1csc(CN(C)C(=O)CC2C(=O)NCCN2Cc2ccc(F)cc2Cl)n1 (centres undefined) | -5% | nt | -3% | -2.0%
O=C(c1ccc(OC2CCN(C/C=C/c3ccccc3)CC2)cc1)N1CCCC1 | 6% | nt | 1% | -2.4%
Cc1onc(-c2ccccc2)c1C(=O)Nc1ccc(Br)cc1Cl | -4% | nt | 0% | -0.7%
Cc1cc(C)nc(SC2CCCCC2NS(=O)(=O)c2ccccc2)n1 (centres undefined) | -2% | -1 | -7% | 0.0%
NS(=O)(=O)c1ccc(CCNC(=O)COC(=O)CCc2ccccc2)cc1 | 0% | -1 | -2% | 1.1%
COC(=O)C1C(c2ccc(OC)c(OC)c2)NC(c2ccc(OC)c(OC)c2)C(C(=O)OC)S1(=O)=O (centres undefined) | 2% | -7 | -15% | 1.6%
Cn1cc(CCC(=O)N2CCCC(CCC(=O)NCc3ccccc3F)C2)cn1 (centres undefined) | 2% | 5 | -7% | -6.0%
COc1ccccc1NC(=O)CSc1nnc2ccc(-c3cccnc3)nn12 | -8% | -4 | -12% | -1.8%
COc1cccc(-n2c(C)cc(/C=C3/C(=N)N4C(=NC3=O)SN=C4S(C)(=O)=O)c2C)c1 | ? | -14 | -23% | ?
CCNc1oc(-c2cccc3ccccc23)nc1C#N | ? | 13 | -52% | ?
COc1ccc(OCCSc2nc(-c3ccccc3)cc(=O)[nH]2)cc1 | 9% | -4[21.1 µM] | -1% | 3.5%
N#Cc1nnn(Cc2ccccc2)c1N | -1% | -4 | -4% | 1.0%
O=c1c(Cl)c(NCc2ccccc2)cnn1C12CC3CC(CC(C3)C1)C2 | 17% | -5 | -9% | 4.5%
Cn1c(=O)oc2cc(S(=O)(=O)CCC(=O)N3CCN(c4ccccc4F)CC3)ccc21 | 13% | nt | 2%&-3% | -2.1%
Cc1cc(C)cc(OCC(=O)N2Cc3ccccc3CC2C(=O)O)c1 (centres undefined) | 1% | -3 | -5% | 0.6%
O=C(O)c1c(NC(=O)N(CCO)Cc2ccccc2)sc2c1CCCC2 | -6% | nt | -10% | 0.0%

Not all compounds are listed; count on the stated rates, not on these rows.
